# KCNQ2 block – KCNQ2 channel blockers in CHO-K1 cells – cell-based, FluxOR thallium flux, B-score, primary screen (AID 2156); O88943; 20 min; active compounds read low; only compounds with negative scores are shown here; some inactives read as strong as hits; B-score at 10 µM; 1.1% of 310,000 active;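 active = fluorescence ratio B-score at most minus 3 library SDs, with starting brightness B-score within 2 library SDs, cut at about -5.5 in these data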
# Target sequence (O88943 whole entry, looked up): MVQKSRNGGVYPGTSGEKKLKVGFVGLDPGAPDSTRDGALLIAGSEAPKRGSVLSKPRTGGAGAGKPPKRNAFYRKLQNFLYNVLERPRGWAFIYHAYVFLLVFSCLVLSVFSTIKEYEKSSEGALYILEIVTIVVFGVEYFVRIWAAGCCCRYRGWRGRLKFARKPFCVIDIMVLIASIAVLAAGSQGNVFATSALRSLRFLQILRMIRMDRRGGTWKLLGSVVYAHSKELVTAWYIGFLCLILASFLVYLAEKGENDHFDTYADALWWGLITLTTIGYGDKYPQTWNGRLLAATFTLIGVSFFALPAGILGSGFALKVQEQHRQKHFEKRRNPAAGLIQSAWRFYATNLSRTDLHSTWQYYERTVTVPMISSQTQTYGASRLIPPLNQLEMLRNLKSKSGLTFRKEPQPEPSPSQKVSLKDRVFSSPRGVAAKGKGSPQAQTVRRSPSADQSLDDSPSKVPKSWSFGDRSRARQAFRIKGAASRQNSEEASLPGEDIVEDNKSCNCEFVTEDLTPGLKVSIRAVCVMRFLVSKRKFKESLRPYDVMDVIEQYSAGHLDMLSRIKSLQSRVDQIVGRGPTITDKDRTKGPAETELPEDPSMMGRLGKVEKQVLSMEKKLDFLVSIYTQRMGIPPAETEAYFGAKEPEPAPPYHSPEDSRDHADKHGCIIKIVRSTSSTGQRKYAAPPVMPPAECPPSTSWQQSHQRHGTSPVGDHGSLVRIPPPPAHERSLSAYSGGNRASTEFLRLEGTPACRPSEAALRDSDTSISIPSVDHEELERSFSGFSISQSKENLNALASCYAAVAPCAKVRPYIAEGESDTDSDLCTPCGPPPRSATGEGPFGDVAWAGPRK
# KCNQ2 block baseline – also measured in KCNQ2 block; calls as there; B-score; measured here: initial fluorescence intensity artifact check;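 brightness before thallium and not channel activity; 0 = typical well and far values either way flag optical interference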
# An asterisk follows results filed as active; i = inactive.
# The opening three entries, ahead of the listing:
KCNQ2 block,KCNQ2 block baseline,SMILES
i,0.37,CCOc1ccc(NC(=O)CSc2nc(C)cc(C)n2)cc1
-5.62*,1.86*,COC(=O)C1=CN(c2ccc(OC)cc2)C=C(C(=O)OC)C1c1ccc([N+](=O)[O-])cc1
i,0.29,S=C(NCC1CCCO1)NC1CCCCC1 (stereo not drawn)

# Results, from the start:
KCNQ2 block,KCNQ2 block baseline,SMILES
i,0.37,CCOc1ccc(NC(=O)CSc2nc(C)cc(C)n2)cc1
-5.62*,1.86*,COC(=O)C1=CN(c2ccc(OC)cc2)C=C(C(=O)OC)C1c1ccc([N+](=O)[O-])cc1
i,0.29,S=C(NCC1CCCO1)NC1CCCCC1 (stereo not drawn)
-6.82*,0.01*,COc1ccc(C=O)cc1COc1ccc([N+](=O)[O-])c(C)c1
i,0.59,COCCSc1nnc(NC(=O)c2ccc3c(c2)OCO3)s1
i,1.61,O=C(COc1ccccc1)N=C1SC2CS(=O)(=O)CC2N1Cc1ccccc1 (stereo not drawn)
i,-0.14,Cc1ccc(-c2cc(C(F)(F)F)c(C#N)c(SCCC#N)n2)o1
i,-1.38,Cc1onc(-c2ccccc2Cl)c1-c1nc(-c2ccccn2)no1
i,-0.17,COc1ccc(N2CCN(Cc3nc4c(c(=O)n(C)c(=O)n4C)n3C(C)C(C)=O)CC2)cc1 (stereo not drawn)
i,-0.56,Cc1ccc(S(=O)(=O)Nc2nc3ccc(S(C)(=O)=O)cc3s2)cc1
i,-0.01,CCOC(=O)c1c(NC(=O)CSc2nnnn2-c2ccc3c(c2)OCO3)sc(C)c1C
i,-0.51,O=C(Nc1ccc(Br)cc1)Nn1cnnc1
i,-0.27,Cc1ccc(OCC(=O)N(Cc2cccs2)C2CCS(=O)(=O)C2)cc1C (stereo not drawn)
i,0.02,O=C(NCc1ccccc1)c1ccc2c(=O)n(CCCN3CCCC3=O)c(=S)[nH]c2c1
i,-0.22,CCCCn1c(SCC(=O)N2CCOCC2)nnc1-c1ccoc1C
i,2.24,CCOCCCNC(=O)c1c[nH]c2ccc(S(=O)(=O)Nc3cccc(OC)c3)cc2c1=O
i,2.02,O=S(=O)(NC(=NC1CCCCC1)c1ccccc1)c1ccc(F)cc1
i,-0.95,O=[N+]([O-])c1cccc(S(=O)(=O)Nc2ccc(S(=O)(=O)N3CCCC3)cc2)c1
i,0.98,COc1ccc(N2CSC3=C(C#N)C(c4cc(OC)ccc4OC)CC(=O)N3C2)c(OC)c1 (stereo not drawn)
i,-0.5,Cc1nc(NCCCN2CCOCC2)c2oc3ccccc3c2n1
i,1.81,C/C=C/CSc1nc2c(c(=O)[nH]c(=O)n2C)n1Cc1ccc(C)cc1
i,0.36,Cc1nc2ccccc2c2c1C(=O)N(c1ccc(C(=O)O)cc1)C2=O
i,-0.65,N#Cc1c(NC(=S)NC(=O)c2ccccc2)sc2c1CCC2
i,-0.5,COC(=O)c1[nH]c2ccccc2c1NC(=O)c1c(F)cccc1F
i,1.59,CCC(C)(C)n1nnnc1C(c1ccccc1OC)N1CCSCC1 (stereo not drawn)
i,1.1,CCn1cc(C(=O)NCCCN2CCN(C)CC2)c(=O)c2cc(S(=O)(=O)N3CCc4ccccc4C3)ccc21
i,0.07,COc1ccc2cc(C(=O)N3CCN(Cc4ccc5c(c4)OCO5)CC3)[nH]c2c1
i,0.39,O=c1[nH]c(N2CCN(c3ccccc3)CC2)nc2c1CCC2
i,-0.19,CCn1c(/C=C/N(C)c2ccccc2)[n+](CC)c2ccc(Cl)cc21
i,-0.6,O=C1CSC(c2ccccn2)N1c1ccccc1F (stereo not drawn)
i,0.09,Cc1ccnc(NS(=O)(=O)c2cc(C(F)(F)F)ccc2Cl)c1
i,0.76,Cc1cc(C)c(NC(=O)COc2ccc(-n3cnnn3)cc2)c(C)c1
i,5.95,OCC1(Cc2cccc(Cl)c2)CCCN(Cc2cn[nH]c2C2CCCCC2)C1 (stereo not drawn)
i,-0.53,N/C(=N/S(=O)(=O)c1ccccc1)c1cccc([N+](=O)[O-])c1
i,0.03,CCn1nnnc1SCC(=O)c1cc(Cl)ccc1OC
i,-0.19,CCc1cc(=O)oc2cc(OCC(=O)NCCCN3CCCC3=O)c(Cl)cc12
i,-0.59,CCOC(=O)Cc1csc(NS(=O)(=O)c2ccc3ccccc3c2)n1
i,0.46,CCNc1nc(N)c(C(=O)C23CC4CC(CC(C4)C2)C3)s1
i,1.5,COCCNC(=S)N/N=C(\C)CCc1ccc2c(c1)OCO2
i,1.59,Cc1cc(C)cc(N(CCC#N)C(=O)COC(=O)c2ccc(OCc3c(C)noc3C)cc2)c1

# Single records (already shown).
# `OCC1(Cc2cccc(Cl)c2)CCCN(Cc2cn[nH]c2C2CCCCC2)C1` (stereo not drawn) across the screens: KCNQ2 block: i; KCNQ2 block baseline: 5.95
# `CCn1c(/C=C/N(C)c2ccccc2)[n+](CC)c2ccc(Cl)cc21` across the screens: KCNQ2 block: i; KCNQ2 block baseline: -0.19

# (continued)
KCNQ2 block,KCNQ2 block baseline,SMILES
i,1.15,COC(=O)c1ccc(NC(=O)CCN2C(=O)CSC2=O)cc1
i,1.6,Cc1noc(C)c1COC(=O)COc1ccc(-c2ccccc2)cc1
i,3.19,CC(c1ccccc1F)n1cc(C(=O)NCCCn2ccnc2)nn1 (stereo not drawn)
i,-2.14,CCCCC(=O)Nc1cccc(-c2cn3ccsc3n2)c1
i,0.94,Cn1cccc1/C=C1\SC(=O)N(CC(=O)Nc2ccc(Cl)cc2)C1=O
i,-1.07,CC(c1ccccc1)C1C(C#N)=C(N)OC2=C1C(=O)CC(C)(C)C2 (stereo not drawn)
i,-1.13,CCOc1cc(C2Nc3cccc4cccc(c34)N2)ccc1O
i,1.24,COc1ccc2c(c1OC)C(=O)N1C2SC[C@H]1C(=O)NC1CCCC1 (stereo partly drawn)
i,2.03,COc1ccccc1-c1ccc(SCC(=O)NC2CCCC2)nn1
i,0.16,Cn1c(=O)n(C)c2cc(/C=N/n3cnnc3)ccc21
-7.46*,0.27*,COc1ccc2c(c1)C(C)CC(C)(C)N2C(=O)CSc1nc2ccccc2s1 (stereo not drawn)
i,3.21,CN(CCC1CCOCC1)C(=O)C1CCC(=O)N(CCc2ccccc2)C1 (stereo not drawn)
i,6.1,Cc1c2ccccc2nc2c(F)c(NC(C)C)c(F)c(F)c12
i,0.14,CSCC(=O)Nc1nc(-c2ccc3c(c2)OCCO3)cs1
i,-0.03,Cc1ccc(N(Cc2ccc([N+](=O)[O-])cc2)C(=O)c2ccco2)cc1
i,1.51,CN=C(NC(=O)Nc1c(C)cccc1C)NC(=O)Nc1c(C)cccc1C
i,-0.78,CN(Cc1ccccc1)c1nc(CN2CCOCC2)nc2scc(-c3ccccc3)c12
i,0.14,CCN(CC(=O)Nc1ccc(NC(C)=O)cc1)C(=O)Cc1ccccc1F
i,-0.67,COc1ccc(NC(=O)Nn2cnnc2)cc1OC
i,-0.07,Cc1ccccc1OCCN1C(=O)C(=O)c2cccc(C)c21
i,0.22,O=C(Nc1cc(=O)[nH]c2ncnn12)c1ccc(Cl)cc1Cl
i,-0.14,COCc1cc(C)nc(NCCc2ccccc2)c1C#N
i,0.23,O=C(C[n+]1ccc(-c2cc(C(=O)Nc3cccc(C(F)(F)F)c3)c3ccccc3n2)cc1)c1cccc([N+](=O)[O-])c1
i,1.72,COc1ccc(NC(=O)CN(C)C(=O)c2ccc(-c3cccc(C(F)(F)F)c3)o2)cc1
i,1.51,COc1cc(NC(=S)N2CCN(C)CC2)cc(OC)c1
i,0.49,Cc1cccc(NC(=S)N/N=C2/CCCCc3ccccc32)c1
i,-1.35,O=C(COc1ccccc1Cl)NCCCNC(=O)c1cnccn1
i,-1.1,Oc1ccc(NC(=S)Nc2ccc(O)cc2)cc1
i,-1.29,Cc1ccc(C)c(OCC(=O)N2CCOCC2)c1
i,-1.92,COc1ccc2cc(-c3[nH]ncc3CN3CCCN(c4ccccc4)CC3)ccc2c1
i,-0.04,CC(C)c1ccc(S(=O)(=O)N2CCN(CC(=O)c3ccc(O)c(O)c3)CC2)cc1
-6.64*,1.46*,C[n+]1c2n(c3ccccc31)N=C(c1cc(C(C)(C)C)c(O)c(C(C)(C)C)c1)CS2
i,2.85,C#CCN1N=C(c2ccc(C)cc2)CSC1=O
i,0.01,Cc1[nH]c2ccccc2c1/C=N/Nc1cccc(C(=O)O)c1
i,0.04,CN(C)c1ccc(CN(C(=O)COc2ccc(Br)cc2)C2CCS(=O)(=O)C2)cc1 (stereo not drawn)
i,-0.83,CN1C(=O)N(C)c2ccc(Br)c3cccc1c23
i,2.16,CN1c2ccccc2Oc2c(c(=O)n(C)c(=O)n2C)C1c1cccc([N+](=O)[O-])c1 (stereo not drawn)
i,-1.21,CCn1nc(C)c(CNC(=O)C2CCC(=O)N(Cc3cccc(F)c3)C2)c1C (stereo not drawn)
i,0.63,O=S(=O)(NCC(c1cccnc1)N1CCOCC1)c1ccc(Cl)cc1 (stereo not drawn)
i,-1.04,COc1cccc(NC(=O)Nc2nc(SC(C)(C)C)ns2)c1
i,-1.44,CCOc1ccc(CNS(=O)(=O)c2ccc3c(c2)CC(=O)N3C)cc1
i,-0.04,O=C(COC(=O)c1ccco1)NCc1ccccc1Cl
i,2.03,O=C(Cc1cccc2ccccc12)Nc1nc2ccccc2[nH]1
i,0.4,O=C1CC(N2CCCCCC2)C(=O)N1c1ccc(F)cc1 (stereo not drawn)
i,0.56,CCOc1cccc(C(=O)Nc2cccc(-c3nnc(-c4ccccc4)o3)c2)c1
i,0.07,O=C(CN1C(=O)C2CC=CCC2C1=O)NC1=NCCS1 (stereo not drawn)
i,0.55,CN1CCN(C(=O)C2=C[C@@H](C(C)(C)C)C[C@@H](OCc3ccc(CO)cc3)O2)CC1
i,-0.38,CCOC(=O)C1(Cc2cccc(OC)c2)CCN(Cc2cnc(SC)nc2)CC1
i,-0.39,NC(=O)COC(=O)c1c2c(nc3ccccc13)CCC2
i,-0.4,Cc1ccc(-n2nc(C)c(C3(O)C(=O)N(C(C)C)c4ccccc43)c2N)cc1 (stereo not drawn)

# (continued)
KCNQ2 block,KCNQ2 block baseline,SMILES
i,0.49,Cc1csc(NC(=O)c2ccc(C)o2)n1
i,-2.27,COc1ccc(C(=O)N[C@H](C(=O)NCc2ccccc2)C(C)C)cc1
i,0.37,CC(C)(C)c1[nH]nc2c1C(C1C=CCCC1)C(C#N)=C(N)O2 (stereo not drawn)
i,0.18,Cc1nc(-c2ccc(Cl)cc2)sc1C1(C)CC(c2ccccc2Br)=NO1 (stereo not drawn)
i,0.12,Cc1cc(C)cc(OCC(=O)Nc2cccc(-c3nc4ncccc4o3)c2)c1
i,-0.65,C=CCn1c(Oc2ccccc2)nc2c1c(=O)n(C)c(=O)n2C
i,0.75,COCCN(CCOC)C(=O)COC(=O)c1ccc(Cl)c(S(=O)(=O)N(C)c2ccccc2)c1
i,0.17,CCOC(=O)C(CCCCOc1ccc([N+](=O)[O-])cc1)C(=O)OCC
i,0.02,COc1ccc(CN(C)CC(=O)Nc2cccc(S(N)(=O)=O)c2)c(OC)c1OC
-5.57*,-0.53*,COc1cc(/C=C/c2ccc3cccc(OC)c3n2)c(OC(C)=O)c([N+](=O)[O-])c1
i,-1.78,Cc1cc(C(=O)N/N=C/c2cccnc2)c(C)o1
i,2.33,Cc1cccc(CN2CCN(c3nc4nonc4nc3NC3CC3)CC2)c1
i,0.84,CCOC(=O)Cc1csc(NC(=O)c2cccs2)n1
i,-0.22,CC1CCN(c2[nH]c(=S)c(C#N)c3c2CCCC3)CC1
i,0.26,CC1Cc2nc(SCC(N)=O)n(C)c(=O)c2S1 (stereo not drawn)
i,-0.19,CN(CC(=O)Nc1cccc(F)c1)C(=O)CCCNC(=O)c1ccc(Cl)cc1
i,1.46,Cc1ccccc1/C=C/C(=O)N1CCOCC1
i,1.88,COc1cccc(CN(C(=O)/C=C/c2ccco2)C2CCS(=O)(=O)C2)c1 (stereo not drawn)
i,-1.31,O=C(CN1C(=O)/C(=C/c2cccc(Br)c2)SC1=S)NCCCN1CCOCC1
i,1.26,COc1cc(NC(=S)NCCCN2CCOCC2)cc(OC)c1

# Rewritten field by field: three of the compounds above.
Cc1ccc(N(Cc2ccc([N+](=O)[O-])cc2)C(=O)c2ccco2)cc1
  KCNQ2 block = i | KCNQ2 block baseline = -0.03
O=C(Cc1cccc2ccccc12)Nc1nc2ccccc2[nH]1
  KCNQ2 block = i | KCNQ2 block baseline = 2.03
Cc1ccnc(NS(=O)(=O)c2cc(C(F)(F)F)ccc2Cl)c1
  KCNQ2 block = i | KCNQ2 block baseline = 0.09

# Ordered by SMILES length (highest first): part of the list above.
KCNQ2 block,KCNQ2 block baseline,SMILES
i,-1.31,O=C(CN1C(=O)/C(=C/c2cccc(Br)c2)SC1=S)NCCCN1CCOCC1
i,1.26,COc1cc(NC(=S)NCCCN2CCOCC2)cc(OC)c1
i,1.46,Cc1ccccc1/C=C/C(=O)N1CCOCC1

# (more compounds)
KCNQ2 block,KCNQ2 block baseline,SMILES
i,-0.96,C=Cc1ncc(OC)c2c1[nH]c1ccccc12
i,0.42,CCOc1ccccc1NS(=O)(=O)c1cc2c3c(c1)C(C)C(=O)N3CCC2 (stereo not drawn)
i,1.26,CCCn1c(SCC(=O)N2CCCc3ccccc32)nnc1-c1ccco1
i,0.68,Cc1c(CNC(=O)c2cnn3c2NC(c2ccccc2)CC3C(F)(F)F)cnn1C (stereo not drawn)
i,1.94,O=C(Nc1ccc2oc(-c3ccccc3F)nc2c1)c1ccccc1F
-7.91*,1.59*,CCCN(/C=N/c1sc2c(c1C#N)CCCCC2)CCC
i,0.52,O=S(=O)(NCc1ccco1)c1cnc(Cl)c(Br)c1
i,0.05,C/C=C/C(=O)OCC(=O)Nc1cccc(F)c1
i,0.21,Nc1ccc(N2CCN(c3ccc(Cl)c(Cl)c3)CC2)cc1
i,1.57,COc1ccc(NC(=O)C2CCCN(S(=O)(=O)c3ccc4[nH]c(=O)ccc4c3)C2)cc1 (stereo not drawn)
i,-0.76,O=C(Nc1ccon1)c1ccc(Br)o1

# Some of the compounds tested; count on the stated rates, not on these rows.
